# Source: PubChem
# STK33 inh = blocks human STK33 kinase activity. Q9BYT3. purified STK33, MBP phosphorylation, ADP-Glo luminescence. inhibition, % at 10 µM. 320,000 tested, 0.073% active. AID 2661;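 active = inhibition at or above 25%, using the most active replicate where run in duplicate; inactive = inhibition below 25%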
# Target sequence (Q9BYT3 whole entry, looked up): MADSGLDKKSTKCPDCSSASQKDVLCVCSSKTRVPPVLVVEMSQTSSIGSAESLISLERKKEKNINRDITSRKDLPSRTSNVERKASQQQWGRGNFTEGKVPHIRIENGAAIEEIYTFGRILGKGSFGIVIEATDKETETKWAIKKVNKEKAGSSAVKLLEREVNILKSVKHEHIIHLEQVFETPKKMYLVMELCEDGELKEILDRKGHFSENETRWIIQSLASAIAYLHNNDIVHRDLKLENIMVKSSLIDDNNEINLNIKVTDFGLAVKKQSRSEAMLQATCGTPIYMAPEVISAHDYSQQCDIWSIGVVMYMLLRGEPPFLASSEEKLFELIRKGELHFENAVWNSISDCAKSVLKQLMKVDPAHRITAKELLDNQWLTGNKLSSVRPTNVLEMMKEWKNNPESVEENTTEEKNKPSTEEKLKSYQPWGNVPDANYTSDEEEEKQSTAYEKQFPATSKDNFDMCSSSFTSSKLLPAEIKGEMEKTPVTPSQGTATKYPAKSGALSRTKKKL
# An asterisk follows results filed as active. An excerpt; most or all hits stand in other tables.
SMILES | STK33 inh
COc1ccccc1N1CCN(CC(=O)c2c[nH]c3ccccc23)CC1 | -1.0
O=C1Nc2ccc(S(=O)(=O)NCCC3=CCCCC3)c3cccc1c23 | -1.8
CN(CC(=O)Nc1ccccc1Cl)C(=O)COC(=O)c1ccc(S(=O)(=O)C(F)F)cc1 | -1.7
CCOc1ccc(NC(=O)c2ccccc2NC(=O)CN2CCN(C(C)=O)CC2)cc1 | 0.6
CCN(C(C)=O)c1nc(CCl)cs1 | -1.2
O=C(CSc1cccs1)NCCc1ccccc1 | -0.9
COC(=O)c1ccc(CSc2nc(N3CCOCC3)c3c(c2C#N)CC(C)(C)OC3)o1 | -0.9
O=C(NCc1cccnc1)c1c(F)c(F)c(F)c(F)c1F | -1.5
Cc1ccc(N2C(=O)CC(Sc3ccccc3C(=O)O)C2=O)cc1C (configuration not stated) | -0.8
CCc1ccc(NC(=O)c2[nH]c(C)c(C(C)=O)c2C)cc1 | -1.7
Nc1nc(SCC(=O)Nc2ccc3c(c2)CCC3)n[nH]1 | 5.8
O=c1c2nncn2c2cc(C(F)(F)F)ccc2n1CCNc1ncc(C(F)(F)F)cc1Cl | -0.1
CC(C)(C)c1ccc(C2C(C#N)=C(N)Oc3n[nH]c(-c4cccnc4)c32)cc1 (configuration not stated) | 0.5
C#Cc1ccc([C@@H]2C=C(C(=O)N3CCOCC3)O[C@H](OCC)[C@H]2CCCO)cc1 | -1.6
Cc1ccc(N2C(=O)N(CC(=O)Nc3cc(C)cc(C)c3)C(=O)C2C)cc1 (configuration not stated) | 0.2
Cc1c(NC(=O)c2ccc(Cl)nc2)cccc1-c1nc2cccnc2s1 | -1.6
Cc1cccc(C)c1NC(=S)NCc1ccncc1 | -1.9
Cc1noc(C)c1COC(=O)CCOc1ccccc1 | -0.8
O=C(Nc1ccc(CN2CCCCC2)cc1)c1c(F)c(F)c(F)c(F)c1F | -0.7
COc1ccc(C(=O)CN2C(=O)c3ccccc3C2=O)cc1 | 0.6
O=C1C(O)CC2c3ccccc3CC3(CCCC3)N12 (configuration not stated) | 0.3
CN(C)CCCN(C(=O)c1ccc2c(c1)CCCC2)c1nc2c(F)cccc2s1 | 0.7
CC(C)C[C@@H](CO)N1CCN(Cc2cccnc2)CCC1=O | -1.0
O=C(CCN1CCN(c2ccccc2)CC1)c1ccc(Br)cc1 | 1.0
Cc1nc(-c2ccc(F)cc2)c(CC(=O)N2CCN(S(=O)(=O)c3ccc(F)cc3)CC2)s1 | -0.4

# 5 entries from above, sorted by length of the SMILES, low to high:
SMILES | STK33 inh
O=C1C(O)CC2c3ccccc3CC3(CCCC3)N12 (configuration not stated) | 0.3
O=C(NCc1cccnc1)c1c(F)c(F)c(F)c(F)c1F | -1.5
O=C(CCN1CCN(c2ccccc2)CC1)c1ccc(Br)cc1 | 1.0
Cc1c(NC(=O)c2ccc(Cl)nc2)cccc1-c1nc2cccnc2s1 | -1.6
CN(CC(=O)Nc1ccccc1Cl)C(=O)COC(=O)c1ccc(S(=O)(=O)C(F)F)cc1 | -1.7

# Going on with the list:
SMILES | STK33 inh
C[C@H](NC(=O)c1[nH]cnc1C(=O)Nc1ccc(Cl)cc1)C(=O)OC(C)(C)C | 0.6
CC(C)(NO)/C(=N\O)c1ccc(Cl)cc1 | -0.1
Cc1ccnc(NC(=O)CCC(=O)N(CC(=O)NCc2ccc(F)cc2)Cc2ccccc2)c1 | -3.6
COC(=O)Nc1nc2ccc(Sc3ccccc3)cc2[nH]1 | 0.7
CCc1ccc(S(=O)(=O)NC(=S)Nc2ccccc2)cc1 | -1.6
O=C(c1ccc2nc[nH]c2c1)N1CCN(c2cccc(Cl)c2)CC1 | 0.8
CCOC(=O)C(C(C)C)C(N)Cc1ccc(F)cc1 (configuration not stated) | -1.1
COc1cccc(NC(=O)C(Sc2nnc3ccccn23)c2ccccc2)c1 (configuration not stated) | -0.1
Cc1sc(NC(=O)c2ccco2)c(C(c2ccc(F)cc2)N2CCN(C)CC2)c1C (configuration not stated) | 0.4
N=c1c(C(=O)NC2CCCC2)cc2c(=O)n3ccccc3nc2n1CC1CCCO1 (configuration not stated) | 0.0
CCOC(=O)c1cnn(-c2cc(C)c3ccccc3n2)c1N | 0.0
COC(=O)c1ccc(Cl)c(NC(=O)CN2CCC(C)CC2)c1 | -1.3
COc1ccc(/C=N/NC(=O)CNC(=O)c2ccc(S(=O)(=O)N3CCOCC3)cc2)c(OC)c1 | 0.1
COc1ccc(NC(=O)CN(C)C(=O)CNC(=O)c2ccc3c(c2)OCO3)cc1 | 0.5
C=CCn1c(O)c(CN2CCOCC2)c(C)c(C#N)c1=O | 0.0
CCOC(=O)c1sc(=NC(=O)c2cccc(OC)c2)n(C)c1C | 0.2
CC(=O)Nc1ccccc1C(=O)N1CCN(Cc2ccccc2)CC1 | 0.9
CC(C)(C)N1[C@@H](CC(=O)O)c2cc(C(F)(F)F)ccc2S1(=O)=O | -0.7
Cc1ccc(S(=O)(=O)N2CCC(C(=O)OCC(=O)N(C)Cc3ccccc3)CC2)cc1C | -1.5
Cc1ccc2nc(NC(=O)C3CSC4(C)CCC(=O)N34)sc2c1 (configuration not stated) | 1.8
O=c1oc(-c2ccc(F)cc2)nc2ccsc12 | -0.1
CN(Cc1ccc(F)cc1)C(=O)c1ccc(NS(=O)(=O)c2ccc3[nH]c(=O)[nH]c3c2)cc1 | 0.0
COC(=O)C(C(=O)OC)C(c1ccccc1)C(C(=O)c1ccccc1)[N+](=O)[O-] (configuration not stated) | -1.0
CCC(=O)c1ccc(N2CCCCCC2)c(F)c1 | -1.1
Cc1noc(-c2ccccc2OC(=O)c2ccccc2)n1 | 0.7

# 3 entries drawn at random from the list so far:
SMILES | STK33 inh
Cc1c(NC(=O)c2ccc(Cl)nc2)cccc1-c1nc2cccnc2s1 | -1.6
CCOC(=O)C(C(C)C)C(N)Cc1ccc(F)cc1 (configuration not stated) | -1.1
Cc1ccc(N2C(=O)CC(Sc3ccccc3C(=O)O)C2=O)cc1C (configuration not stated) | -0.8

# Other structures
SMILES | STK33 inh
COC(=O)c1cc(S(=O)(=O)NCc2ccc3c(c2)OCO3)c[nH]1 | -2.4
Cc1ccc(/C=N/NC(=O)c2cc3ccccc3cc2O)o1 | 3.3
c1ccc(OCCSc2ncnc3nc[nH]c23)cc1 | 2.5
CCCCc1c(C)nc2ccc(C)cc2c1SCCC(=O)O | -0.9
CCOC(=O)c1cccc(NC(=O)c2cncc(Br)c2)c1 | 3.6
COc1ccc(C)cc1NC(=O)COC(=O)C1CC1 | -0.1
Cc1nc2ccccc2n1CC(=O)N/N=C/c1cccs1 | -0.1
NC(=O)NCc1cccc(Cl)c1 | -1.2
COc1ccc(CCCc2nnc(SCC(=O)Nc3nc(C)cs3)n2C)cc1C | -0.9
CCOC(=O)c1ccc(Nc2ncnc3c2cnn3C)cc1 | 0.2
COc1cccc(NC(=O)NC(C)C2CC3CCC2C3)c1 (configuration not stated) | -0.1
O=C(c1ccc(Cl)c(S(=O)(=O)N2CCOCC2)c1)N1CCN(c2ccccc2F)CC1 | -0.4
Cc1ccc(-c2nn(-c3cccc(F)c3)cc2CN2CCN(c3ccccn3)CC2)o1 | -0.9
COC(=O)/C=C1\C(=O)N(c2nc3ccc(OC)cc3s2)C(=S)N1c1ccc(F)cc1 | -0.2
CCC(=O)Nc1cc2nn(-c3ccccc3)nc2cc1Cl | -1.1
Cc1cccc(NC(=O)c2ccccc2NC(=O)c2ccccc2)n1 | 2.4
COc1ccc(N/C=C2\C(=O)c3c(sc(C)c3C)N(C)S2(=O)=O)cc1 | -2.8
CCN(CC)c1ccc(NC(=O)CCS(=O)(=O)c2cccc3nsnc23)c(C)c1 | -0.3
O=C(CCC(=O)N1CCCC(Nc2ccccc2)C1)c1ccc(F)cc1 (configuration not stated) | 0.6
CCOc1ccc2nc(NC(=O)CSc3nc(SC)ns3)sc2c1 | -0.5
Cc1ccc(/C=C2\SC(=S)N(CCC(=O)Nc3cccnc3)C2=O)cc1 | -1.4
C=CCNC(=O)c1ccccc1SCc1c(C)noc1C | 0.0
c1cc(N2CCCC2)ccc1C(c1nnnn1C1CCCCC1)N1CCOCC1 (configuration not stated) | 2.7
O=C(CCS(=O)(=O)c1cccs1)Nc1ccc(C(=O)NCc2cccs2)cc1 | -1.7
Cc1ccc(CNC(=O)Cn2ccc3cc(S(=O)(=O)N4CCCCCC4)ccc32)cc1 | -0.6
CCc1ccc(C(=O)N2CCCN(C)CC2)s1 | -0.1
Cc1c(C(=O)N2CCC[C@H]2C(N)=O)oc2c(F)cccc12 | -6.4
CCOc1ccc(S(=O)(=O)NCc2ccc(OC)cc2)c2cccnc12 | -0.9
O=C(NCCNc1ccnc2cc(Cl)ccc12)c1ccccc1F | -0.9
c1ccc(CNc2nc3ccccc3n3cnnc23)nc1 | 0.3
COc1ccc(C(=O)NCCc2nnc(SCC(=O)Nc3ccccc3F)n2C)cc1 | -3.6
COC(=O)c1nn(-c2ccc(Cl)cc2)c(=O)cc1Sc1ccccn1 | 3.1
O=C1NCCCC1C(=O)N/N=C/c1cccc(O)c1 (configuration not stated) | -1.0
CCCC12CN3CC(C)(CN(C1)C3c1cccs1)C2=O (configuration not stated) | 0.1
C=CCSC1=C(C#N)C(c2ccc(C(C)C)cc2)CC(=O)N1 (configuration not stated) | 0.6
CCCCNC(=O)N(O)C1N(CCCC)C(=O)N(CC(=O)OC)C1(C)C (configuration not stated) | -1.4
Cc1cccc(Nc2nc(-c3ccccc3)c(C(=O)Nc3cccnc3)s2)c1 | -1.4
O=C(COC(=O)c1c2c(nc3ccccc13)CCCC2)c1ccc(Br)s1 | 0.4
COc1ccc(NC(=O)NC2(C(=O)N3CCCCC3)CCCCC2)cc1 | -0.4
CC1CCc2nn(CC(=O)NCCN3CCCCC3C)cc2C1 (configuration not stated) | -1.1
c1ccc(-c2csc3ncn4nnnc4c23)cc1 | -0.1
O=C(Cc1ccccc1)Nc1nc2ccccc2[nH]1 | -1.4
CC1CCCCC1NC(=O)CN1C(=O)NC(C)(c2ccc(OC(F)F)cc2)C1=O (configuration not stated) | -1.8
COCc1cc(C)nc(SCC(=O)Nc2nc(C)cs2)c1C#N | -1.9
Cc1nn(-c2ccc(F)cc2F)c(=O)c2noc(C)c12 | -0.5
CCOC(=O)c1cnn(-c2ccccc2)c1NC(=O)CN1CCOCC1 | 0.4
O=C(CCS(=O)(=O)c1ccccc1)Nc1ccc2c(c1)C(=O)NC2=O | 2.6
COc1ccc(C(=O)N2CCOC2CNC(=O)C(=O)NCc2ccccc2Cl)cc1 (configuration not stated) | 0.4
COc1ccc(C(=O)N2CCCC(C(=O)c3ccccc3OC)C2)cc1OC (configuration not stated) | -0.5
COc1ccccc1CNC(=O)C1CCCN(S(=O)(=O)c2ccc3c(c2)C(C)(C)C(=O)N3C)C1 (configuration not stated) | 0.0

# Other structures
SMILES | STK33 inh
Cc1ccc(NC(=S)N(CCCN(C)C)Cc2cc3cc4c(cc3[nH]c2=O)OCO4)c(C)c1 | 0.8
Cc1ccccc1Nc1nc(-c2sc(NC(=O)c3ccc([N+](=O)[O-])cc3)nc2C)cs1 | 0.7
CCOC(=O)c1c(NC(=O)CSc2nnc3c(n2)[nH]c2ccccc23)sc2c1CCN(C)C2 | -3.5
Cc1ccc(OCC(=O)Nc2cccc(-c3nnc(-c4ccccc4)o3)c2)c(C)c1 | -0.2
CCSc1nc(-c2ccc(OC)cc2)n(-c2nc3ccccc3s2)n1 | -1.4
Cc1ccc(N(CC(=O)NCc2ccc3c(c2)OCO3)C(=O)c2csnn2)cc1 | 1.1
CC(C)C[C@H](NC(=O)c1nc[nH]c1C(=O)N[C@@H](CCCCNC(=O)OC(C)(C)C)C(=O)OC(C)(C)C)C(=O)OC(C)(C)C | -1.4
C[C@@H]1C=C(C(=O)O)O[C@H](OCc2ccc(CO)cc2)C1 | -1.2
COc1cccc(C(=O)Nc2ccncc2)c1OC | 1.6
Cc1nn(-c2ccccc2)c(Cl)c1C(=O)NCCN(C)C | -2.2
Cc1ccccc1N(C(=O)Cn1nnc(-c2cccs2)n1)C(C(=O)NCCC(C)C)c1ccco1 (configuration not stated) | 0.9
COc1ccc(NC(=O)CSc2nc3[nH]ncc3c(=O)[nH]2)cc1OC | -2.6
Cc1nn(-c2ccccc2)c2sc(-c3n[nH]c(=S)o3)cc12 | -0.7
O=C(/C=C/c1ccc(Cl)cc1Cl)NC(=S)Nc1ccccn1 | -1.1
O=C(CCl)NCc1c(Cl)cccc1-n1cccc1 | 0.1
OCCCNc1ncnc2c1[nH]c1ccccc12 | 6.3
O=C1CN(c2nc(-c3ccccc3)c3cc(Br)ccc3n2)c2ccccc2N1 | -0.4
CC(=O)c1c(C)[nH]c(C(=O)N2CCN(S(=O)(=O)c3ccc(F)c(F)c3)CC2)c1C | -2.9
FC(F)(F)c1ccc2c(c1)[nH]c(=S)n2C1CC1 | -2.2
O=C(O)CC1(CC(=O)NCc2ccncc2)CCCCC1 | 0.1
O=C(Nc1ccon1)c1cc(-c2ccccc2)nc2ccccc12 | -1.7
CCOc1ccc(OCc2ccc(C(=O)NC(C)(C)C)o2)cc1 | -0.8
C=CCN1C(=O)C(Cc2ccc(Br)cc2)S/C1=N\N=C\c1ccco1 (configuration not stated) | -1.3
CC(C)c1cc(C(=O)N2CCCC(N3CCN(c4ccccc4F)CC3)C2)nc(N)n1 (configuration not stated) | 1.2
CN(C(=O)NC1CCCCC1)c1ccccc1 | -0.5
Cc1ccc(Cl)c2c1NC(=O)C2(O)CC(=O)c1ccccc1O (configuration not stated) | -0.5
O=C(CS(=O)c1cccc(C(F)(F)F)c1)Nc1ccccc1Cl (configuration not stated) | 0.8
O=C(NCc1cccc(F)c1)C1CCC(=O)N(CCCN2CCOCC2)C1 (configuration not stated) | -0.7
Cc1nc(SCCC(=O)O)c2cc(-c3ccccc3)sc2n1 | 1.0
CN(C)S(=O)(=O)c1ccc(NC(=S)NC(=O)c2cccs2)cc1 | 0.4
O=c1[nH]c(=O)n(CCc2ccc(F)cc2)c(O)c1C=NCc1ccc2c(c1)OCO2 | -0.3
NC(=O)COC(=O)CSc1cccc2cccc(Cl)c12 | 0.6
